# RVFV N-RNA inh: blocks Rift Valley Fever Virus nucleoprotein binding to RNA; P21700; RVFV N-RNA binding, fluorescence polarization; stronger effect = lower value; % bound, % (test concentration not listed); 0.1% of 20,000 active; AID 651828;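 active means between 0 and 58% in either replicate with normal brightness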;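 further: 100 nL library stock added to about 12 µL; 100% = protein and probe without compound and 0% = probe alone; numbers are from one replicate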
# Target sequence (P21700 whole entry, looked up): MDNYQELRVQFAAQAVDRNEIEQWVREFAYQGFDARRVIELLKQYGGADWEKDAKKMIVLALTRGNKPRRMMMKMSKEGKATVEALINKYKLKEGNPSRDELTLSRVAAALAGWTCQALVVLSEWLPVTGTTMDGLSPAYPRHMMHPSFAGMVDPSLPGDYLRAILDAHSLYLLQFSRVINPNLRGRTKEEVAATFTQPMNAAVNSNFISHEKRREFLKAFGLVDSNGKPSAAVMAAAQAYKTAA
# * hit, by the source's call; & = joins results of further samples. Only part of the results is shown. The share of hits here may be higher or lower than overall.
# Preview, 14 compounds:
No.	Compound	RVFV N-RNA inh
1	NNC(=O)c1ccc(Oc2ccc(C(=O)NN)cc2)cc1	100
2	c1cc2c(cc1-c1ccc(SCCN3CCCCC3)nn1)OCO2	98
3	CSc1cccc(NC(=O)C(C)NS(=O)(=O)c2ccccc2)c1 (stereo not drawn)	97
4	O=C(O)CCCN1CCN([C@H](c2ccccc2)c2ccc(Cl)cc2)CC1	104
5	Cc1ccccc1NC(=O)N1c2ccccc2CC1C (stereo not drawn)	91
6	CCOC(=O)c1cn2nc(Oc3ccc(N4CCN(C(C)=O)CC4)cc3)ccc2n1	97
7	Cc1cc(NC(=O)/C=C\c2ccc3c(c2)OCO3)nc2c1c(=O)oc1ccccc12	104
8	O=C(N/N=C1\CCCc2ccccc21)C(O)c1ccccc1 (stereo not drawn)	90
9	O=S(=O)(NCCc1cn2ccccc2n1)c1ccccc1	96
10	CC(C)[N+](C)(CCOC(=O)C1c2ccccc2Oc2ccccc21)C(C)C	100&95
11	Nc1ncnc2c1c(I)cn2[C@@H]1O[C@H](CO)[C@H](O)C1O (stereo partly drawn)	104
12	CSc1ccc2nnc(-c3cccnc3)n2n1	93
13	CC1=NN(c2ccccc2)C(=O)/C1=C\c1ccc(N)cc1	99
14	C/C(=N\NC1=NCCN1)c1ccc(C)cc1	96

# Results, from the first entry:
No.	Compound	RVFV N-RNA inh
1	NNC(=O)c1ccc(Oc2ccc(C(=O)NN)cc2)cc1	100
2	c1cc2c(cc1-c1ccc(SCCN3CCCCC3)nn1)OCO2	98
3	CSc1cccc(NC(=O)C(C)NS(=O)(=O)c2ccccc2)c1 (stereo not drawn)	97
4	O=C(O)CCCN1CCN([C@H](c2ccccc2)c2ccc(Cl)cc2)CC1	104
5	Cc1ccccc1NC(=O)N1c2ccccc2CC1C (stereo not drawn)	91
6	CCOC(=O)c1cn2nc(Oc3ccc(N4CCN(C(C)=O)CC4)cc3)ccc2n1	97
7	Cc1cc(NC(=O)/C=C\c2ccc3c(c2)OCO3)nc2c1c(=O)oc1ccccc12	104
8	O=C(N/N=C1\CCCc2ccccc21)C(O)c1ccccc1 (stereo not drawn)	90
9	O=S(=O)(NCCc1cn2ccccc2n1)c1ccccc1	96
10	CC(C)[N+](C)(CCOC(=O)C1c2ccccc2Oc2ccccc21)C(C)C	100&95
11	Nc1ncnc2c1c(I)cn2[C@@H]1O[C@H](CO)[C@H](O)C1O (stereo partly drawn)	104
12	CSc1ccc2nnc(-c3cccnc3)n2n1	93
13	CC1=NN(c2ccccc2)C(=O)/C1=C\c1ccc(N)cc1	99
14	C/C(=N\NC1=NCCN1)c1ccc(C)cc1	96
15	Cc1cc(NC(=O)c2cccc(S(=O)(=O)N3CCCCC3)c2)no1	93
16	CCC(=O)Nc1ccccc1N1CCN(C)CC1	95
17	Cc1ccc(C(=O)N/N=C/c2ccccc2)cc1	101
18	CN(C)CCNC(=O)c1ccc(Br)s1	85
19	Nc1c(Br)cc(Br)cc1CNC1CCC(O)CC1 (stereo not drawn)	91
20	CC1Cc2ccccc2N1C(=O)c1ccc2c(c1)OCO2 (stereo not drawn)	93
21	CCOC(=O)c1c(C)nn(-c2ncccc2NC(=O)NC(C)C)c1C	93
22	CCOC(=O)C1=C(O)/C(=C/c2ccc(C)o2)SC1=NC(=O)c1ccccc1	101
23	C#CCSc1nc(=O)n2ccccc2n1	104
24	OC1(c2ccc(Cl)cc2)CCN(Cc2c[nH]c3ccccc23)CC1	94
25	CCOC(=O)N1CCCN=C1NNc1cc(F)ccc1F	97
26	CCCC1=NN(c2ccc(C(=O)OCC)cc2)C(=O)C1	90
27	Clc1ccc(Cn2c(CN3CCCC3)nc3ccccc32)cc1	90
28	O=C(O)c1ccccc1-c1ccc(-c2cc(C(=O)O)c3cc(F)ccc3n2)o1	94
29	CC(C)(C)/C=N/NS(=O)(=O)c1ccc(Cl)s1	96
30	C/C=C/C(=O)Nc1ccc(OC)cc1	91
31	CCC(=O)Nc1nnc(SCC(=O)N2CCCc3ccccc32)s1	92
32	Cn1c(O)c(N=Nc2ccc(C(F)(F)F)cc2)c(=O)n(C)c1=O	91
33	Cc1nc(NC(=O)c2ccc(F)cc2)nc2cc3c(cc12)OCO3	98
34	Cc1ccnc(NC(=O)NCCCSc2nnnn2-c2ccccc2)n1	91
35	Fc1ccc(NC(=S)NC23CN4CN(CN(C4)C2)C3)cc1	91
36	OC1CCN(Cc2cccc(C(F)(F)F)c2)CC1	102
37	COCCNC(=O)c1ccccc1NS(=O)(=O)c1ccc(F)cc1	94
38	Cc1cc(=O)n(-c2nc(-c3ccccc3)cs2)[nH]1	96
39	C/C(N)=C/C(=O)N1CCCCC1	87
40	O/N=C(/C(=N/O)c1ccco1)c1ccco1	97
41	CN(C)c1cncc(C(=O)O)c1	96
42	O=c1[nH]ccc2c1c(=O)[nH]c1ccccc12	106
43	CC(C)=C1C(=O)N(c2ccccc2)C(=S)N1c1ccccc1	94
44	CCCSc1nnc2c(n1)OC(C)(C)Nc1ccccc1-2	109
45	Fc1ccc(Oc2nc(Oc3ccc(F)cc3)nc(N3CCSCC3)n2)cc1	88
46	O/N=C1/CCN(Cc2ccccc2)C1	109
47	O=c1[nH][nH]c2ccccc2c1=O	92
48	CCOc1ccccc1C(=O)Nc1ccc(-c2ccc3nncn3n2)cc1	89
49	CC(C)NCC(O)COc1ccc(COCCOC(C)C)cc1 (stereo not drawn)	94&85
50	N/C(=N\OC(=O)Nc1ccccc1)c1ccc2nonc2c1	94
51	N#Cc1ccccc1N=Cc1ccccc1O	103
52	O=C1CCCC2=C1C(c1ccncc1)n1c(nc3ccccc31)N2 (stereo not drawn)	107
53	CCN(CC)CC(=O)NC1(C)CCCCC1c1ccc(O)cc1 (stereo not drawn)	95
54	O=C(NCc1cccnc1)c1csc2ccccc12	95
55	Cc1ccc(S(=O)(=O)N(c2ccccc2)C(F)F)cc1	90
56	CS(=O)(=O)N1CCN(C(=O)C2c3ccccc3Oc3ccccc32)CC1	87
57	CC1CCC(C(C)C)C(OP(N)(=O)c2ccc(N(C)C)cc2)C1 (stereo not drawn)	95
58	Cn1ncc(Cl)c(Oc2ccccc2)c1=O	90
59	Cc1sc2nc3n(c(=O)c2c1C)CCCS3	96
60	CNC(=S)N1CCc2c([nH]c3ccccc23)C1C(F)(F)F (stereo not drawn)	100

# Following part:
No.	Compound	RVFV N-RNA inh
61	O=C(NNc1ncccc1-n1cccc1)c1ccco1	97
62	COc1ccc(-c2ccc(-c3noc(-c4ccccc4F)n3)c(OC)n2)cc1	94
63	CCOC(=O)Cn1c(Cl)c(/C=N/NC(=O)c2ccccc2)sc1=O	95
64	CCS(=O)(=O)c1ccc(-c2cccc(NC(=O)C3CC3)c2)nn1	93
65	CC1CN(c2cc(=O)n(Cc3ccc(F)cc3)c(=O)[nH]2)CC(C)O1 (stereo not drawn)	92
66	CCn1c(O)c(/C=C2\C=Nc3ccc(Br)cc32)c(=O)[nH]c1=O	84
67	COCC(=O)N1CCN(c2cccc(Cl)c2)CC1	88
68	CC1(C)C(=O)C2(C(=O)Nc3cccc(C(F)(F)F)c3)CCC1C2 (stereo not drawn)	99
69	Cc1ccccc1C1NC(=O)Cc2ccccc21 (stereo not drawn)	91
70	O=C1NC(=O)C(Nc2ccccc2C(=O)O)S1 (stereo not drawn)	98
71	COc1ccc(C)cc1S(=O)(=O)N(C)CC(=O)N1CCN(c2cccc(Cl)c2)CC1	98
72	COC(=O)[C@H](CC(N)=O)NC(C)=O	94
73	O=C1CS/C(=N\N=C\c2ccccc2Cl)N1CC1CC1	93
74	CC(=O)N/N=C/c1ccccc1	98
75	CCOC(=O)C1CCCN(CCc2ccccc2)C1 (stereo not drawn)	97
76	O=C1/C(=C/c2ccncc2)CCc2ccccc21	102
77	CCCCC(CC)CCC(CC(C)C)OS(=O)(=O)O (stereo not drawn)	85
78	O=C1NC(c2cc3c(cc2Br)OCO3)Oc2ccccc21 (stereo not drawn)	91
79	Cc1ccc2c(c1)C1CC(C)(O2)N(Cc2ccccc2)C(=O)N1 (stereo not drawn)	96
80	CC1(C)Cc2c(c(N3CCOCC3)nc3sc4c(=O)[nH]cnc4c23)CS1	93
81	NC(=O)CCNS(=O)(=O)c1ccccc1	93
82	c1ccc2c(c1)nnn2Cc1ccc(Cn2nnc3ccccc32)cc1	100
83	O=c1c(Cl)c(O)cnn1C1CCCCC1	94
84	O=C(CCSc1ccccc1)NCCc1ccccc1	94
85	N#CCOc1ccc(-c2ccccc2)cc1	95
86	Cc1cccc(C)c1OCC(=O)Nn1c(=O)[nH]c2ccccc2c1=O	100
87	CCN(CC)C(=S)SSC(=S)N(CC)CC	99&100&92
88	CCc1c(C)c(C#N)c2nc3ccccc3n2c1NC1CCCC1	102
89	CCCC(=O)N(CC)c1ccccc1C	92
90	COc1cccc(CN2CCC(N3CCCCC3)CC2)c1	104
91	CN(C)C(=S)Nc1ccc(Cc2ccncc2)cc1	93
92	N[C@@]1(C(=O)O)CC[C@@H](C(=O)O)C1	101
93	CC(C)CC(=O)Nc1ccccc1C(F)(F)F	94
94	O=C1CN(c2ccc(OC(F)(F)F)cc2)C(=O)CN1Cc1ccc2c(c1)OCO2	100
95	CCCC1(C)SC(NC(C)=O)=NN1C(C)=O (stereo not drawn)	95
96	CC(C)(C)c1c(O)[nH]c(=S)[nH]c1=O	93
97	Cc1cc(Cl)c(S(=O)(=O)Nc2ccccc2)cc1OCC(=O)Nc1nncs1	97
98	O=C(O)C1CCCN1c1nc(C(F)(F)F)nc2ccccc12 (stereo not drawn)	95
99	Cc1cc(C(=O)N2CCC(Cc3ccccc3)CC2)c(C)o1	107
100	Cc1ccc(C)c(-c2nnc(NC(=O)Cc3ccccc3)o2)c1	96

# Further records follow.
nr	smiles	RVFV N-RNA inh
101	COc1cccc(NC(=O)c2cccc(OC)c2)c1	93
102	CCOC(=O)c1c(NC(=O)CSc2nnc(-c3ccco3)o2)sc(C)c1C	98
103	CCOC(=O)C(C)N1CC(=O)N(c2ccccc2)C1=O (stereo not drawn)	96
104	CC(C)C(=O)NCCCc1ccccc1	92
105	Cn1[nH]c2nc3[nH]n(C)c(=O)c3c(-c3ccccc3)c2c1=O	94
106	Cc1ccc(CNS(=O)(=O)c2cn(C)c(=O)n(C)c2=O)cc1	94
107	CCN(C(=O)COc1ccccc1C(N)=O)c1ccccc1	101
108	CCCNC(=S)Nc1cc(OC)cc(OC)c1	96
109	C=CCn1c(SCC(=O)Nc2ccccc2)nnc1C(CC(C)C)NC(=O)c1cccs1 (stereo not drawn)	100
110	CS(=O)(=O)N(CC(O)Cn1c2ccccc2c2ccccc21)c1ccccc1 (stereo not drawn)	92
111	CCN(Cc1ccccc1)C(=O)c1cc2cccnc2n(C)c1=O	93
112	CN1CCN(C(=O)c2ccco2)CC1	103
113	Cc1cnc(C(=O)NCCc2ccc(S(=O)(=O)NC(=O)NC3CCCCC3)cc2)cn1	101&98&89
114	CC1=Nn2c(nc3sc(C)c(C)c3c2=O)SC1	97
115	O=C(O)Cc1c[nH]c2ccc(O)cc12	95
116	CCN1CCN(c2ccc(N3CCN(C(=O)c4cc(OC)c(OC)c(OC)c4)CC3)nn2)CC1	98
117	Cn1c(CNC(=O)c2ccccc2F)nnc1SCC(=O)N1CCN(c2ccccc2)CC1	93
118	CO/C(N)=N/C(=S)Nc1cccc(C(F)(F)F)c1	92
119	CC(=O)N1CCN(C2CCN(CCc3ccccc3)CC2)CC1	90
120	CCN(CC)C(=O)c1cccnc1	97
121	CNNCc1ccc(C(=O)NC(C)C)cc1	97&94
122	COC(=O)c1nnn(-c2nonc2N)c1CN1CCC(Cc2ccccc2)CC1	97
123	CCC(=O)Nc1nnc(-c2ccc3c(c2)CCCC3)o1	98
124	Cc1[nH]nc2c1C1C(C2)C1(C)C (stereo not drawn)	96
125	COc1ccc(Cn2c(O)c(N=O)c3ccccc32)cc1	112
126	O=C(O)CNCC(O)Cn1c2ccccc2c2ccccc21 (stereo not drawn)	93
127	O=C(/C=C/c1ccccc1)Nn1cnc2c(cnn2-c2ccccc2)c1=O	100
128	COc1ccc2cc(-c3nc(-c4cccs4)cs3)c(=O)oc2c1	102
129	COc1cccc(OC)c1C(=O)NCC#N	95
130	CNc1ccccc1-n1ccc(-c2ccccc2)n1	97
131	O=C1CCC/C(=N\Nc2ccccc2)C1	94
132	CCSc1nnc2ccc(-c3ccncc3)nn12	101
133	COc1ccc(NC(=O)c2cc3nc(C(F)F)cc(C(F)F)n3n2)cc1OC	98
134	O=C(O)CNC(=O)c1ccc(S(=O)(=O)N2CCCC2)cc1	93
135	c1csc(-c2ncc3ccccn23)c1	90
136	CC(C)(C)c1cc(C=C(C#N)C#N)cc(C(C)(C)C)c1O	99
137	CCc1ccccc1NC(=O)C=C(C)C	85
138	NC(N)=N/N=C/c1ccccc1	87
139	Cc1ccc(NC2=NCCS2)c(C)c1	95
140	Cn1c(=O)n(Cc2ccco2)c(=N)c2c3c(sc21)CCCC3	106
141	CCC(=O)Nc1ccccc1C(=O)NC(C)(C)C	95
142	O=C(CSc1ccc(-c2ccco2)nn1)c1ccccc1	99
143	CC(=O)Nn1c(=O)[nH]c2ccccc2c1=O	89
144	Cc1cc(C)n(NC(=S)NC2CCCCC2)c(=O)c1C#N	94
145	Oc1ccccc1C=Nc1ccc2ncccc2c1	93
146	Cc1cccc(NC(=S)NC(C)(C)C)c1	102&99
147	Cc1ccc(SCC(=O)N=C2NC(=O)CS2)cc1	93
148	COc1ccccc1C1=NN(C(=S)Nc2ccccc2)C(c2ccco2)C1 (stereo not drawn)	99
149	CCCN1CCC(NC(=O)Nc2ccc(OC)c(OC)c2)CC1	98
150	CC(C)(C)c1cc(CCC(=O)O)cc(C(C)(C)C)c1O	95

# Next part.
nr	smiles	RVFV N-RNA inh
151	Cc1cc(Oc2cc(C#N)c(C#N)cc2N2CCOCC2)cc(C)c1Cl	95
152	CC(=O)Nc1ccc(Cl)cc1C(F)(F)F	96
153	C/C(=N\OC(=O)c1ccc(Cl)cc1)c1ccc[nH]1	94
154	Cn1cnc(S(=O)(=O)N2CCN(c3ccccn3)CC2)c1	92
155	N/C(=N\NC(=O)Nc1ccccc1)c1ccc(C(F)(F)F)cn1	95
156	COc1ccc(NC(=O)N2CCc3ccccc3C2)cc1	102
157	O=C(CSc1ncnc2c1nnn2Cc1ccc(F)cc1)NC1CCCC1	91
158	O=C(c1ccc(Cl)cc1)N1c2ccccc2OC1c1ccc2c(c1)OCO2 (stereo not drawn)	101
159	O=C(O)/C(=C/c1c(C(=O)O)[nH]c2cc(Cl)cc(Cl)c12)c1ccccc1	99
160	NC(=O)CN(CC(N)=O)S(=O)(=O)c1ccccc1	109
